From PubChem
NS1 inh: qHTS Assay for Inhibitors of Influenza NS1 Protein Function; S. cerevisiae slowed by influenza A NS1, growth recovery by OD600; Potency, µM (highest dose often 46.1 µM), inactives show at the highest dose activity, positive = more growth; 0.4% of 270,000 active; AID 2326, 2010; also: actives are rising curves; nearly all actives have a fitted effect of over 50% in size
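OD600 was taken as the measure of yeast growth restored by compound in an NS1-expressing S. cerevisiae strain. Cells had been washed out of glucose medium and diluted 1:100 into galactose -URA medium, pH 6.0.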
Cruzain inh Det: qHTS Assay for Promiscuous and Specific Inhibitors of Cruzain (with detergent) | 0.43% of 200,000 active | Potency, µM, for the others: max response, negative = inhibition, usual class: inhibitors | purified cruzain, Z-FR-AMC fluorescence, 0.01% Triton | Cruzipain (Trypanosoma cruzi), P25779; active = well fitted curve in the direction sought with a large enough effect; inconclusive = small, poorly fitted or top-dose-only effect, or another doubt; inactive = no such curve, though single readings can be large; an effect the other way counts as inactive or inconclusive;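 also: plate controls were neutral wells for no effect and buffer without enzyme for full effect; nearly all actives have a fitted effect of over 40% in size; top concentration of the series not given in the record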
Target sequence (P25779 123-467 limits assumed): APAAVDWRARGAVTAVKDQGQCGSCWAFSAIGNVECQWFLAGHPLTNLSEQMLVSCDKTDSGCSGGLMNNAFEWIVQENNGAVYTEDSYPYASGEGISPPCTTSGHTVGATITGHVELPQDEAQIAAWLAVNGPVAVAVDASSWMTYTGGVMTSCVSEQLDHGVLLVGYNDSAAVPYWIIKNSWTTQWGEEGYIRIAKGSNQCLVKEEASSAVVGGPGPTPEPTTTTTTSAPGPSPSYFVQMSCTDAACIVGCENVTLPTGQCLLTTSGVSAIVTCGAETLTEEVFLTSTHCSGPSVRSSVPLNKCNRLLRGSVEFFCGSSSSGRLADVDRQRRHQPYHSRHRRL
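15 min RT preincubation of 1.5 nM cruzain with compound, then 2 uM Z-FR-AMC added; kinetic AMC fluorescence, 60 s delta. Triton X-100 0.01%, pH 5.5.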
SARS PLP yeast: qHTS of Yeast-based Assay for SARS-CoV PLP. S. cerevisiae expressing SARS-CoV PLpro, growth rescue; control for the full effect not named in the record. Potency, µM (top dose mostly 32.9 µM), for the others: at the highest dose activity, positive = growth rescue. 0.19% of 330,000 active. AID 485353, 2010; also: 0% is about no effect; nearly all actives have a fitted effect of over 55% in size; growth read by luminescence after 48 h
2A StopGo: High Throughput Screening for Foot and Mouth Disease Virus Antivirals; human cells with a luciferase reporter of 2A StopGo recoding; control for the full effect not named in the record; Potency, µM (highest dose often 57.9 µM), for inactives: top-dose signal change, negative = less light; 1.2% of 410,000 active; AID 1159524, 2015; active = well fitted falling curve with a large enough effect; inconclusive = small, poorly fitted or top-dose-only effect; inactive = no such curve, though single readings can be large or run the other way; tested in HEK293T cells; also: % is scaled to controls: 0 for no effect and ±100 for the full control effect; nearly all actives have a fitted effect of over 45% in size; luciferase light after 4 h
Cruzain inh noDet: qHTS Assay for Promiscuous and Specific Inhibitors of Cruzain (without detergent); purified cruzain, Z-FR-AMC fluorescence, no detergent; Potency, µM, without a hit: max response, negative = inhibition, hits mostly inhibitors; 2.3% of 200,000 active; Cruzipain (Trypanosoma cruzi), P25779; active = well fitted curve in the direction sought with a large enough effect; inconclusive = small, poorly fitted or top-dose-only effect, or another doubt; inactive = no such curve, though single readings can be large; an effect the other way counts as inactive or inconclusive;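 also: plate controls were enzyme without inhibitor for no effect and buffer without enzyme for full effect; nearly all actives have a fitted effect of over 40% in size; top concentration of the series not given in the record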
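Purified cruzain at 1.5 nM, pre-incubated 15 min with compound at room temperature in 100 mM sodium acetate pH 5.5, 5 mM DTT, 0.00005% Triton X-100. Reaction started with 2 uM Z-FR-AMC; AMC fluorescence increase over 60 s gives rate.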
RE007 growth inh: qHTS Assay for Inhibitors of the HIV-1 protein Vpr; S. pombe RE007 Vpr strain, BacTiter-Glo ATP luminescence, 24 h; control for the full effect not named in the record; Potency, µM (series often up to 92.2 µM), for the others: at the top dose activity change, negative = less growth; 0.21% of 360,000 active; AID 651644, 2012; active = well fitted falling curve with a large enough effect; inconclusive = small, poorly fitted or top-dose-only effect; inactive = no such curve, though single readings can be large or run the other way;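 also: % is scaled to controls: 0 for no effect and ±100 for the full control effect; nearly all actives have a fitted effect of over 50% in size; the assay follows cell death caused by Vpr and the record does not say whether a fall means rescue or toxicity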
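Fission yeast RE007 carrying one integrated HIV-1 vpr copy, seeded at OD 0.01 in PMG+AL medium with 23 nL pinned compound. Grown 24 h at 30 degrees; viability read by BacTiter-Glo luminescence after 5 min.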
Marburg entry inh: qHTS for inhibitors of binding or entry into cells for Marburg Virus; Marburg virus pseudotyped entry inhibition, cell reporter; control for the full effect not named in the record; about a third of the inactives were read at about 46 µM; Potency, µM (doses to about 37.8 µM), for the others: at the top dose activity change, negative = inhibition, actives largely listed as inhibitors; 1.8% of 300,000 active; active = well fitted inhibition curve with a large enough effect; inconclusive = small, poorly fitted or top-dose-only effect, or effect the other way; inactive = flat fitted curve, though single readings scatter; tested in HEK293 cells; about a fifth of its hits are not listed in these tables; also: % is scaled to controls: 0 for no effect and ±100 for the full control effect; luciferase read-out
LASV entry inh: qHTS for Inhibitors of binding or entry into cells for Lassa Virus; Lassa virus pseudotype entry inhibition, cell reporter; control for the full effect not named in the record; Potency, µM (doses to about 37.9 µM), for inactives: at the top dose activity change, negative = inhibition, most hits filed as inhibitors; 1.2% of 300,000 active; AID 540256, 2011; active means well fitted inhibition curve with a large enough effect; inconclusive means small, poorly fitted or top-dose-only effect, or effect the other way; inactive means flat fitted curve, though single readings scatter; tested in HEK293 cells; also: % is scaled to controls: 0 for no effect and ±100 for the full control effect; nearly all actives have a fitted effect of over 50% in size; luciferase read-out
* marks the source's active call; other numbers are inactive results; ? = inconclusive; nt = not tested or not shown; & = joins results of further samples; [ ] = dose if it differs, or a comment. Unless noted, calls follow the shape of the dose curve; as a rule, active means well fitted rising curve with a large enough effect; inconclusive means small, poorly fitted or top-dose-only effect; inactive means no such curve, though single readings can be large or run the other way. Potency is read from the fitted curve at half-maximal effect.

Molecule | NS1 inh | Cruzain inh Det | SARS PLP yeast | 2A StopGo | Cruzain inh noDet | RE007 growth inh | Marburg entry inh | LASV entry inh
COc1cccc(C(=O)NCc2ccc3c(c2)OCO3)c1OC | -31% | nt | -7% | 31%[activator] | nt | 5% | -8% | 2%
O=C(C1CCCN(S(=O)(=O)c2cccc3nsnc23)C1)N1CCC2(CC1)OCCO2 (stereo unspecified) | -2% | -4.7% | 4% | ? | -7% | -8% | 0% | 13%
CC(=O)Nc1ccc(S(=O)(=O)Nc2ccc(Nc3ccccc3)cc2)cc1 | 3% | nt | 1% | 31%[activator] | nt | -13% | nt | nt
Cc1c(Br)c(O)c(Br)c2sc(=O)oc12 | 3% | nt | -1% | -21% | nt | -17% | nt | nt
Cc1ccc(Cl)cc1N(CC(=O)Nc1cccc(N(C)S(C)(=O)=O)c1)S(C)(=O)=O | -3% | nt | 1% | 5% | nt | 5% | 13%[46.1 µM] | 6%
O=C(NCCCc1ccccc1)[C@@H]1Cc2ccccc2CN1 | -2% | nt | 0% | 15% | nt | -5% | ? | 10%[46.1 µM]
CCC(C)NC(=O)CSc1ccc(Cl)cc1 (stereo unspecified) | 5% | -0.5% | 17% | 34%[activator] | -10% | -22% | 9%&9%[46.1 µM] | -1%
COc1ccc2c(c1)C=C(CN1CCC(CO)(CCc3ccccc3)CC1)CO2 | 2% | nt | -1% | -25% | nt | -10% | ? | -1%[46.1 µM]
COc1ccc(C2c3c(n(C)c4ccccc34)C(=O)N2CC(=O)Nc2ccccc2F)cc1 (stereo unspecified) | nt | -6.4% | nt | -8% | -9% | nt | nt | -1%[46.1 µM]
O=C(Nc1nnc(-c2ccccc2F)s1)c1ccccc1F | -4% | nt | -2% | 35%[activator] | nt | 1% | 19%[46.1 µM] | -1%[46.1 µM]
COc1cc(CN2CCCC(C(=O)Nc3ccccc3Oc3cccnc3)C2)ccc1F (stereo unspecified) | ? | nt | 17% | -21% | nt | -5% | nt | nt
CCc1cccc(CC)c1NC(=O)CCS(=O)(=O)c1ccc(Br)s1 | nt | -2.7% | nt | -19% | -8% | nt | ? | -21%[46.1 µM]
Nc1ccc(C(=O)OCc2nc3c(ccc4ccccc43)[nH]2)cc1 | -5% | -10% | -14% | 9% | -24% | 2% | ? | 8.9µM*
Cc1ccc2cc(C#N)c(NCCNC(=O)C3CCC3)nc2c1C | -13% | -1.1% | 3% | ? | 6% | 7% | -6% | -14%
COCCCn1c(=O)/c(=C\c2ccccc2OC(F)F)s/c1=C(/C#N)C(=O)N1CCOCC1 | 3% | nt | 3% | -28% | nt | -13% | -14%[46.1 µM] | ?
Cc1ccsc1C(=O)OCC(=O)NCCC1=CCCCC1 | -1% | -0.1% | 1% | 12% | -16% | -6% | 17% | -1%
O=c1[nH]c(SCc2cccc(F)c2)nc2c1CCCC2 | -12% | -2.3% | -9% | -14% | 4% | 2% | -1% | -2%
CCCCn1c(SCC(=O)N2CCOCC2)nnc1-c1cccs1 | -7% | 5.0% | ? | 13% | -3% | 17% | -4% | 2%
COc1ccc(N2CC(NC(=O)/C=C\c3ccccc3)CC2=O)cc1OC (stereo unspecified) | nt | 0.2% | nt | -8% | -8% | nt | nt | 12%[46.1 µM]
O=C(CCN1C(=O)/C(=C\c2cccs2)SC1=S)Nc1nccs1 | -4% | -6.0% | -13% | -3% | -2% | -2% | 1% | -1%
O=C(COc1ccc2ccc(=O)oc2c1)NCCCN1CCCC1=O | 7% | nt | -2% | -6% | nt | 1% | nt | nt
Cc1c(C#N)c2ccccc2n1CC(=O)N1CCc2ccccc2C1 | -48% | -4.3% | 5% | -12% | -15% | -2% | -5% | nt
CC1(C)CN(c2cccc(-c3ccnc4ncnn34)c2)C1=O | nt | nt | 2% | -8% | nt | 6% | 12% | ?
CCOC(=O)N1CCC(N2C(=O)c3ccccc3C2Nc2ccc(S(=O)(=O)N(CC)CC)cc2)CC1 (stereo unspecified) | nt | nt | -3% | 0% | nt | -5% | ? | -19%
O=C(CC(=O)c1cccs1)c1ccncc1 | nt | nt | nt | 9% | nt | ? | ? | -23%[46.1 µM]
O=S(=O)(c1ccccc1)c1cnn2c(C(F)(F)F)cc(-c3ccccc3)nc12 | 14% | 4.9% | -2% | -11% | -9% | 8% | -9% | -2%
CCN(CC)C(=O)CNc1ccc(C(F)(F)F)cc1[N+](=O)[O-] | 12% | -2.2% | -18% | -10% | 0% | -2% | -33% | 6%
O=C(c1cccs1)C1CCCN(Cc2nc(Cc3ccccc3F)no2)C1 (stereo unspecified) | -2% | nt | 1% | 1% | nt | -13% | nt | nt
CCOc1ccccc1NC(=O)C(OC(=O)c1ccccc1NS(=O)(=O)c1cccs1)c1ccccc1 (stereo unspecified) | 1% | -1.6% | -9% | -1% | ? | 5% | ? | ?
O=C1CCC(c2ccccc2)N1c1ccccc1 (stereo unspecified) | nt | nt | nt | -17% | nt | 3% | 23% | ?
CCOc1ccc(OCC)c(NC(=O)C2CCN(c3nnc(-n4cccc4)s3)CC2)c1 | nt | -1.3% | nt | 0% | 1% | nt | nt | 20%[46.1 µM]
CCC(C(=O)NCCN1CCOCC1)n1nc(C)n2c(cc3sccc32)c1=O (stereo unspecified) | -2% | nt | -2% | -17% | nt | -1% | nt | nt
Cc1cc(C(=O)Nc2ccon2)ccc1[N+](=O)[O-] | nt | nt | nt | 8% | nt | 18% | 12%[46.1 µM] | 1%
Cc1ccc(NC(=O)OCC(F)(F)C(F)F)cc1NC(=O)OCC(F)(F)C(F)F | 0% | -7.6% | 1% | -23% | -5% | -6% | -24% | -33%
COc1ccc2c(c1)c1c(c(=O)n(-c3ccc(OC)c(OC)c3)c(=O)n1Cc1ccccc1F)n2C | nt | -3.1% | nt | -11% | 10% | nt | nt | 0%[46.1 µM]
O=C(O)c1cc(-c2ccccc2)n(-c2ccccc2)n1 | -6% | 3.7% | 5% | -19% | -3% | 6% | ? | -2%
Clc1ccccc1N1CCN(c2ncnc3nc[nH]c23)CC1 | -1% | -0.7% | -14% | -13% | -8% | -8% | nt | nt
CNC(=O)CSc1nc2ccccc2c(=O)n1CCc1ccccc1 | -34% | nt | -3% | -5% | nt | 2% | 5% | ?
COc1cc(/C=C/C(=O)N2CCc3ccccc3C2)cc(OC)c1OC | 3% | nt | -8% | -4% | nt | 6% | nt | nt
CCOc1ccc(NC(=O)c2c(C)nn(-c3ccc(F)cc3)c2-n2cccc2)cc1 | nt | -1.4% | nt | 4% | -22% | nt | nt | ?
COc1ccc(C(=O)N2CCC(c3c[nH]c4ccccc34)(c3c[nH]c4ccccc34)CC2)cc1 | nt | -3.4% | nt | 0% | -15% | nt | ? | ?
CCc1ccc(/C=C(/C#N)c2nc(-c3ccc(C)cc3)cs2)cc1 | nt | -1.0% | nt | -20% | -9% | nt | 2%[46.1 µM] | 6%[46.1 µM]
CC(Oc1ccc(Cl)cc1)C(=O)Nc1ccc(S(=O)(=O)Nc2nccs2)cc1 (stereo unspecified) | 16% | nt | 0% | 42%[activator] | nt | 2% | ? | ?
CC1CCC2C(=O)N(c3ccc(NC4CCCCC4)c([N+](=O)[O-])c3)C(=O)C2C1 (stereo unspecified) | 20% | -3.5% | 2% | -20% | -2% | 9% | 10% | -1%
COc1ccc2c(c1)O[C@H](c1ccc3c(c1)OCO3)[C@@H](OC(=O)N[C@H](C)C1CCCCC1)C2=O | 16% | -1.6%&-2.7% | -10% | nt | ? | nt | -3% | -18%
CC(CCc1ccccc1)NC(=O)c1ccc(Cl)nc1 (stereo unspecified) | -8% | 3.9% | -1% | -25% | -6% | 11% | -1% | -10%
O=C(Nc1ccc(F)cc1)c1cc(S(=O)(=O)Nc2ccc(F)cc2)cs1 | 27% | -6.3% | -3% | -11% | 1% | 5% | -29% | ?
O=C1C2C3C=CC(C3)C2C(=O)N1CNc1ccccn1 (stereo unspecified) | 11% | 1.1% | -3% | 1% | -5% | 14% | 2% | 7%
Cc1ccc2c(c1)[nH]c1c(=O)n(Cc3ccco3)cnc12 | 0% | nt | -4% | 26% | nt | -10% | nt | nt
O=Cc1ccc(Oc2nc(Cl)ncc2F)cc1 | 21% | nt | -1% | -13% | nt | 8% | nt | nt
COc1cc(OC)c(NC(=O)Cn2c(=O)cc(C)c3c(C)nn(-c4ccc(C)cc4)c32)cc1Cl | nt | 8.6% | nt | -5% | 4% | nt | nt | 28%[46.1 µM]
Cc1ccc(Cn2nnc3c(=O)[nH]c(C4CCN(S(=O)(=O)c5ccccc5)CC4)nc32)cc1 | ? | -0.1% | 2% | -15% | ? | -11% | ? | ?
CCn1c(-c2ccccc2)c[nH]c1=S | 9% | -0.3% | 24% | -13% | -5% | 11% | -1% | 1%
COc1ccc(-c2cc(C(F)(F)F)nc(SCCC(=O)Nc3ccc(OC)c(OC)c3)n2)cc1 | nt | -5.7% | nt | 0% | ? | nt | ? | -3%[46.1 µM]
C/C(CC(=O)Nc1ccc2c(c1)OCCO2)=N\NC(=O)COc1cccc(C)c1 | 3% | nt | -1% | -5% | nt | -2% | 10%[46.1 µM] | 26%
O=S(=O)(Nc1ccc2cn[nH]c2c1)c1ccc(Cl)cc1 | 4% | nt | -5% | -11% | nt | -6% | nt | nt
COc1cccc(/C=N/n2cnc3ccccc32)c1OC | -13% | -6.6% | -8% | 18% | 2% | -17% | ? | 0%
CC1(C)CC(=O)C=C(NCC2CCCO2)C1 (stereo unspecified) | 3% | 0.8% | ? | nt | 6% | -3% | 2% | 2%
COc1ccc2[nH]cc(CCN3C(=O)c4ccc(C(=O)O)cc4C3=O)c2c1 | 3% | nt | -1% | 17% | nt | 0% | ? | 15%[46.1 µM]
Cc1cc(Nc2ccc(F)cc2)nc(-n2nc(C)cc2C)n1 | nt | 3.1% | nt | -10% | 1% | nt | nt | -11%[46.1 µM]
